Screening data as filed in PubChem.
A1 inh: caspase 3/7 activation in MEF A1-2A-BIM cells, primary screen, A1 inhibitor project, cell-based, luminescence, HTS; Caspase-Glo 3/7 luminescence, 3 h; percent of clofoctol response, vehicle zero; caspase activation, % (test concentration not listed); 330,000 compounds, 0.066% hits;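 active = over half of replicate activation scores above 10%, or exactly half above 10 with the replicate mean above 10; inconclusive = replicate mean below 10 yet half the replicates above 10; inactive = over half of replicates below 10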;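 also: wells of about 30 µL received 50 nL stock; many hits fall short of the cut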
UCH37 DUB inh: inhibitors of human UCH37 deubiquitinase, primary screen, biochemical, Ub-AMC cleavage, fluorescence. 330,000 compounds, 0.33% hits. purified proteasome/UCH37. inhibition, % (concentration not given with the values). Ubiquitin carboxyl-terminal hydrolase isozyme L5 (Homo sapiens), Q9Y5K5;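 active = mean of two replicates above 20%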;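 also: 0% = compound-free wells with enzyme and 100% = wells lacking proteasome; stock transfer was 100 nL into about 20 µL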
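Material: human UCH37 enzyme supplied as purified proteasome complex. Measure: % inhibition of Ub-AMC cleavage fluorescence. Medium: pH 7.4 Tris-HCl (50 mM) with ovalbumin, ATP-MgCl2, DTT. Times: 30 min preincubation with enzyme, 25 min cleavage at room temperature. Detection: AMC fluorescence intensity at 355/460 nm.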
HNF4A DNA FP: change in binding of human HNF4A to DNA, primary screen, biochemical, fluorescence polarization, FITC-DNA; 1 h; 360,000 compounds, 0.3% hits; activity change, % at 10 µM; in the data active = activity change above about 30%, passing the limit was not always enough;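 also: controls were the assay level and a saturating level of protein; the project sought stronger binding though the title names inhibitors; some compounds called inactive have numbers as strong as hits; positive values seem to mean higher polarization but the record does not say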
E coli growth: E. coli growth inhibition, primary screen, OD600; Escherichia coli growth, 23 h; stronger effect = lower value; OD600 absorbance (test concentration not listed); 330,000 compounds, 0.21% hits; AID 1053175, 2014;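 active = OD600 absorbance below the run mean of sample wells minus 3.6 SD, in any replicate, cut at about 0.56 in these data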;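 also: stock transfer was 300 nL into about 60 µL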
LANA-H2A inh: blockers of LANA interaction with H2A/H2B – biochemical, FP readout, HTS, primary screen; cell-free LANA-H2A/H2B peptide, fluorescence polarization; inhibition, % (no concentration beside the values); 320,000 compounds, 0.6% hits; AID 2629, 2010; in the data active = inhibition mostly above about 10%, no sharp cut-off; inactive = mostly below about 6.7%;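 also: stock transfer was 7.5 nL into about 10 µL; 0% = median of vehicle wells and 100% = median of positive control wells; one replicate is shown; the record names a cut of 25% in any replicate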
Target sequence (Q9QR71 whole entry, looked up): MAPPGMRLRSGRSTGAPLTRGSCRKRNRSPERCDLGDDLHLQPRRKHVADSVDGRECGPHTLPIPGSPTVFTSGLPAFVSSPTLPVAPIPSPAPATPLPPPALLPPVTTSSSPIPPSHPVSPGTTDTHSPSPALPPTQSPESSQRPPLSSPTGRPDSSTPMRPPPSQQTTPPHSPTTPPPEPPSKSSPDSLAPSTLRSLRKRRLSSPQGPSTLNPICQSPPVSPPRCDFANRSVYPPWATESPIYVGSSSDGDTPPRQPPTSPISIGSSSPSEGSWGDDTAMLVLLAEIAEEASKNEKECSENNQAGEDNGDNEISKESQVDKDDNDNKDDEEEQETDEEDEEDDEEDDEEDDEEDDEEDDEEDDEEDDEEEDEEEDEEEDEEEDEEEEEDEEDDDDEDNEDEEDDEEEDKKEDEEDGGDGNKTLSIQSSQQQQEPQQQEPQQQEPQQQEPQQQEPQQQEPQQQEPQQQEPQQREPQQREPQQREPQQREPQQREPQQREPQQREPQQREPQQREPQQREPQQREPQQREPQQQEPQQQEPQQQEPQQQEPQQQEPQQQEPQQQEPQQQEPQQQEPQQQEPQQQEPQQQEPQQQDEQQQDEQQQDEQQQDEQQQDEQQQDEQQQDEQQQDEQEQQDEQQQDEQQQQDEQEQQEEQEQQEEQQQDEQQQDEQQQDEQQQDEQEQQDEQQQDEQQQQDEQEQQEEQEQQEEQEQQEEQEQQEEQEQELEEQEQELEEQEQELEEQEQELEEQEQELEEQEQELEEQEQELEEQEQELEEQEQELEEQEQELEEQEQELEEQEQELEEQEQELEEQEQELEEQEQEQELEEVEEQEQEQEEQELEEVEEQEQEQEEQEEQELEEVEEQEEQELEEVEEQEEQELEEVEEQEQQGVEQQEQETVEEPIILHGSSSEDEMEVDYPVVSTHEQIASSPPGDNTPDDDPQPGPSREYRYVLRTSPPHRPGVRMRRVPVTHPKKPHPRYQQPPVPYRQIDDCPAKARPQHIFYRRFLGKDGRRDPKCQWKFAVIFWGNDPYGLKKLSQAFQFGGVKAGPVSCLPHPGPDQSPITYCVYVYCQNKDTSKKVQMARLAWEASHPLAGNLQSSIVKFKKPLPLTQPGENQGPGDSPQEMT
B2AR ag: beta2AR agonists driving receptor internalization, primary screen, cell-based, FAP fluorogen, flow cytometry; Am2.2-beta2AR cells; reference of the scale not given here; response, % (concentration not given with the values); 340,000 compounds, 0.43% hits; AID 504454, 2011;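 active = response above a set limit, near 3 SD of response in nonfluorescent compounds, cut at about 42% in these data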;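 also: stock transfer was 100 nL into about 11 µL; a reference agonist was the positive control; negative values mostly stem from fluorescent compounds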
Vif TR-FRET: inhibitors of Vif binding to APOBEC3G peptide, primary screen, biochemical, TR-FRET, GST-Vif 1-94, biotin-A3G peptide, dose response retest (AID 1117319); Virion infectivity factor (Human immunodeficiency virus type 1 group M subtype B (isolate …; inhibition, %, or IC50 in µM where a hit was titrated; 260,000 compounds, 0.57% hits; TR-FRET GST-Vif / biotin-A3G peptide binding; higher % means a stronger effect; test concentration not given here; strong numbers were not always called active;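 active = above the screen mean plus three standard deviations and confirmed in dose response; inconclusive = results disagree or hit not tested in dose response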;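 also: Vif residues 1-94 fused to GST binding biotinylated APOBEC3G peptide 110-148; 0% = full assay without inhibitor and 100% = GST in place of GST-Vif; retest series ran down from 100 µM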
Starred values were filed as active, the others as inactive; ? = inconclusive; · = not tested or not shown; & = joins results of further samples.

SMILES | A1 inh | UCH37 DUB inh | HNF4A DNA FP | E coli growth | LANA-H2A inh | B2AR ag | Vif TR-FRET
COC(=O)[C@@]12CCCCN1[C@H](c1ccc(SC3CCCCC3)cc1)[C@H]1C(=O)N(C)C(=O)[C@H]12 | 0.7 | 0.9 | 3.5 | · | -0.8 | -6.2 | ·
Cn1c(=O)c2cc(S(=O)(=O)NCCC(=O)NCC3CCCO3)ccc2n(C)c1=O (stereo unspecified) | 0.1 | 2.3 | 1.5 | 0.734 | -2.0 | 10.4 | 4.7%
CC(C)(C)NC(=O)C(c1ccc(-c2ccccc2)cc1)N(C[C@H]1CC[C@@H]([C@@H]2CC[C@H](CO)O2)O1)C(=O)c1ccc(-c2ccccc2)cc1 (stereo partly specified) | · | · | -1.8 | · | · | 8.4 | -0.2%
CCn1nc(C)cc1C(=O)N1CCCC(C(=O)c2ccc(Oc3ccccc3)cc2)C1 (stereo unspecified) | 0.8 | 3.9 | 3.1 | 0.697 | -5.5 | -14.0 | 8.0%
COc1cccc(C(=O)Nc2ccc(NC(=O)c3cc4ccccc4o3)c(OC)c2)c1 | 0.1 | -52.1 | 2.1 | 0.737 | 4.9 | 10.8 | -2.5%
Cc1cccc([N+](=O)[O-])c1NC(=O)CN(Cc1ccccc1)Cc1ccccc1 | 0.8 | 1.7 | -2.1 | 0.637 | 2.3 | 1.2 | 4.6%
CCOCCCNC(=O)CCc1ccc(S(=O)(=O)Nc2ccc(C)cc2)cc1 | -0.7 | -2.5 | -6.1 | 0.693 | 7.0 | -0.7 | -1.0%
CCc1nnc(NC(=O)[C@@H](NC(=O)c2cccc(S(=O)(=O)N(CC)CC)c2)C(C)C)s1 | 1.8 | -5.0 | 1.9 | 0.71 | -2.1 | 5.2 | 2.6%
COc1ccccc1CC(=O)Nc1ccccc1O | -0.5 | 0.4 | 2.0 | 0.669 | 2.3 | 6.5 | -0.4%
COc1ccc(OCC(=O)OCC(=O)NCc2ccco2)cc1 | -2.7 | -5.5 | -3.1 | 0.777 | -0.9 | -7.1 | 2.9%
COc1ccc([C@@H]2[C@@H]3C(=O)N(C(C)(C)C)C(=O)[C@@H]3[C@]3(C)C(=O)N(c4ccc(C(F)(F)F)cc4)C(=O)N23)cc1 | 0.6 | 1.5 | 1.1 | · | 0.6 | -7.2 | ·
COc1ccc(C(CCc2ccc(C)o2)NC(=O)Nc2ccc(OC)cc2OC)cc1 (stereo unspecified) | 0.4 | 0.5 | -2.0 | 0.732 | -1.5 | 7.8 | -2.5%
COc1ccc(CCN2C(=NC(=O)CCC(=O)O)SC3CS(=O)(=O)CC32)cc1 (stereo unspecified) | 2.9 | 2.0 | 1.7 | 0.688 | -2.1 | -8.3 | 7.2%
Cc1ccccc1-c1cnn(-c2cccc([N+](=O)[O-])c2)c1N | -1.1 | -0.7 | 0.9 | 0.7 | -0.3 | 3.2 | 2.2%
CCOc1ccc(-c2nc(CSCC(=O)N3CCN(c4cccc(OC)c4)CC3)c(C)o2)cc1 | 0.1 | 5.8 | 0.9 | 0.775 | 0.9 | -8.4 | ?
CC(C)(C)NC(=O)NC(=O)COC(=O)CCC1CCCCC1 | -0.7 | -0.3 | 2.0 | 0.722 | 3.2 | -10.0 | 0.1%
C=CCOc1cccc(C2C(C(=O)c3ccc(C)o3)=C(O)C(=O)N2CCN(C)C)c1 (stereo unspecified) | 0.5 | 2.8 | 1.2 | 0.748 | -2.3 | 21.1 | 4.5%
O=C(Cn1nc(-c2ccccc2)c2ccccc2c1=O)Nc1ccc(F)cc1 | 0.0 | -0.5 | 2.5 | 0.72 | 4.2 | -6.2 | -14.4%
O=C(NC1CC1)C1=C[C@@H](c2ccc(Br)cc2)C[C@@H](OCCCCO)O1 | -0.1 | -2.0 | -0.6 | 0.802 | 2.7 | -11.9 | -4.4%
O=c1[nH]c2ccc(S(=O)(=O)N3CCCC3)cc2[nH]1 | -0.5 | 2.9 | -0.6 | 0.721 | 3.4 | -4.4 | ·
CN(C)CCN(C(=O)c1ccc2ccccc2c1)c1nc2c(F)cc(F)cc2s1 | 0.6 | 2.9 | 11.5 | 0.7 | 3.5 | -6.4 | ·
Cc1cccc(NC(=O)[C@H](Cc2c[nH]c3ccccc23)NC(=O)[C@@H]2Cc3ccccc3CN2)c1 | 0.9 | 0.4 | 3.4 | 0.73 | -1.5 | 7.2 | ·
CCNC(=O)CSc1nc2ccccc2c(=O)n1-c1cccc(OC)c1 | -0.3 | 3.9 | -0.5 | 0.695 | 3.0 | -10.6 | 1.7%
O=S(=O)(NC1CC1)c1ccc(S(=O)(=O)N2CCCC(c3nc(-c4cccnc4)no3)C2)cc1 (stereo unspecified) | -0.1 | 1.7 | -4.3 | 0.638 | -0.1 | 4.6 | -7.5%&-1.4%
CC(C)CNC(=S)N(CCCO)Cc1cc2cc3c(cc2[nH]c1=O)OCO3 | -0.5 | -109.0 | 1.8 | 0.653 | 0.9 | -0.7 | ·
CC(=O)Nc1ccc(OCC(O)Cn2c(CO)nc3ccccc32)cc1 (stereo unspecified) | -0.6 | 2.5 | 1.0 | 0.69 | -2.2 | -8.7 | 25.1%
Cc1noc(C)c1CSCC(=O)Nc1nnc(CC(C)C)s1 | -0.6 | 4.6 | 4.0 | 0.683 | 0.3 | 2.9 | 1.9%
COCCCNC(=O)C1CCC(=O)N1Cc1ccccc1Cl (stereo unspecified) | 1.8 | -5.4 | -1.9 | 0.774 | -3.9 | -8.2 | -6.6%
Cc1c(NC(=O)Nc2ccc([N+](=O)[O-])cc2)c(=O)n(-c2ccccc2)n1C | -0.5 | 7.7 | -1.1 | 0.692 | -1.9 | 1.9 | -1.8%
O=C(Nc1nc2ccccc2[nH]1)c1ccccc1OC(F)F | -10.1 | 0.0 | 0.7 | 0.649 | 8.9 | -16.6 | ·
O=C(c1ccccc1[N+](=O)[O-])n1cnc2ccccc21 | 0.4 | 2.8 | 1.4 | 0.733 | -4.5 | 2.7 | -5.6%
CC1(C)CCc2cc(-c3ccn(S(=O)(=O)c4ccccc4Cl)n3)ccc2O1 | 0.3 | · | 8.6 | · | 0.4 | 5.7 | ·
Cc1c(NC2=CC(=O)CC(C)(C)C2)ccc([N+](=O)[O-])c1C | 0.1 | 3.8 | 0.9 | 0.66 | 4.5 | -2.1 | -0.9%
O=C(NCC(c1cccs1)N1CCOCC1)c1cc(S(=O)(=O)N2CCOCC2)ccc1F (stereo unspecified) | -0.2 | 0.4 | 1.8 | 0.704 | 1.8 | 3.1 | -3.8%
O=C(CC(=O)NC1CCCCC1)N/N=C/c1cccc2ccccc12 | 0.0 | · | 0.4 | · | -2.3 | -7.6 | 10.6%
Cc1ccc(NC(=O)CCN2CCOCC2)cc1C | ? | -1.8 | -2.0 | 0.717 | 1.7 | -6.1 | ·

In a second layout: results already given.
Compound,A1 inh,UCH37 DUB inh,HNF4A DNA FP,E coli growth,LANA-H2A inh,B2AR ag,Vif TR-FRET
O=C(Nc1nc2ccccc2[nH]1)c1ccccc1OC(F)F,-10.1,0.0,0.7,0.649,8.9,-16.6,·
CC(=O)Nc1ccc(OCC(O)Cn2c(CO)nc3ccccc32)cc1 (stereo unspecified),-0.6,2.5,1.0,0.69,-2.2,-8.7,25.1%

(cont.)
SMILES | A1 inh | UCH37 DUB inh | HNF4A DNA FP | E coli growth | LANA-H2A inh | B2AR ag | Vif TR-FRET
COc1ccc(OC)c(NC(=O)C2C3CC4OC(=O)C2C4C3)c1 (stereo unspecified) | 0.0 | 1.4 | -1.4 | 0.765 | 8.0 | -6.7 | 18.2%
Cc1nc(SCCc2ccccc2)[nH]c(=O)c1C | 1.0 | 0.1 | 0.1 | 0.69 | -8.2 | 3.5 | 4.7%
CCN(CC)c1nc(N2CCOCC2)nc2ccccc12 | 0.6 | -25.9 | -2.8 | 0.669 | -3.1 | 1.9 | ·
Cc1nnc(SCC(=O)N2CCC(Cc3ccccc3)CC2)n(N)c1=O | -0.3 | -2.3 | -2.2 | 0.749 | -1.6 | -3.9 | -5.8%
O=c1cc(-c2ccccc2Cl)oc2c([N+](=O)[O-])c(O)cc(O)c12 | -0.9 | 9.3 | -0.9 | 0.642 | -0.6 | 1.2 | ?
CC(O)(c1ccccc1)c1ccc2ccccc2n1 (stereo unspecified) | · | · | 1.2 | · | · | -3.0 | -10.5%
COc1ccc(C(=O)N/N=C(\C)c2cccc(NC(=O)c3ccc(F)cc3)c2)c(OC)c1 | -0.6 | · | 5.1 | · | -5.4 | 17.0 | 4.2%
O=C(OCC(=O)N1CCN(C(=O)c2ccco2)CC1)C1=COCCO1 | 0.8 | 2.4 | 5.4 | 0.674 | 0.9 | 6.8 | 12.1%
CCOc1ccc(C(=O)CCC(=O)NCC(=O)Nc2c(C)cccc2C)cc1 | 1.0 | -3.0 | 6.8 | 0.658 | -5.8 | -5.0 | ·
CC(=O)c1ccc(C(=O)N(CCN(C)C)c2nc3c(Cl)cccc3s2)cc1 | -0.6 | 6.9 | -2.6 | 0.644 | 4.5 | -7.1 | 1.0%
COc1ccccc1N(CC(=O)NCCc1ccccc1)C(=O)CCC(=O)Nc1ccccn1 | -0.1 | -0.4 | 0.2 | 0.666 | 1.8 | -4.6 | ·
C=CCNC(=S)NNC(=O)c1ccc(Br)cc1 | -0.5 | · | -1.8 | · | 0.1 | -4.4 | ·
O=c1ccc(-c2ccc([N+](=O)[O-])cc2)nn1-c1ccccc1 | 0.0 | 4.5 | 0.5 | 0.65 | 3.7 | -19.7 | -4.7%
CN(C)c1nc(N)nc(-c2ccco2)n1 | 1.0 | 0.1 | -0.2 | 0.761 | -4.7 | -2.7 | -6.0%
CNC(=O)C(=O)N/N=C/c1ccc(Br)cc1 | -0.2 | · | 0.8 | · | -4.1 | 2.5 | 17.2%
O=C(Nc1ccncc1)c1cccs1 | 0.1 | 0.0 | -0.4 | 0.728 | -5.0 | -3.7 | 5.3%
COc1ccccc1N1CCN(S(=O)(=O)CCNC(=O)C23CC4CC(CC(C4)C2)C3)CC1 | -0.2 | -0.7 | -3.4 | 0.706 | 0.4 | 8.0 | ·
COc1ccc(Cl)cc1NC(=O)CN1CCN(S(=O)(=O)c2ccc(F)cc2)CC1 | -0.6 | 2.4 | 0.7 | 0.685 | 6.4 | -3.6 | ·
Cc1ccc(CNC(=O)C2CCC(=O)N(Cc3ccccc3F)C2)s1 (stereo unspecified) | 0.3 | 4.3 | 0.0 | 0.675 | -0.5 | 3.0 | ·
CCOc1ccc(NC(=O)CN2C(=O)C(C)SC(C)C2=O)cc1 (stereo unspecified) | 0.8 | 4.9 | -1.4 | 0.709 | -2.1 | -3.7 | 1.9%
COCCN(C(=O)c1c(C)noc1C)c1c(N)n(CC(C)C)c(=O)[nH]c1=O | -1.2 | 1.9 | 1.1 | 0.68 | 1.1 | -5.2 | ·
O=C(Cc1cccs1)N/N=C/C=C/c1ccccc1 | 0.4 | · | 1.9 | · | 2.2 | -6.2 | 4.2%
CC(C)c1ccc(NC(=O)C2=CC=CN3CCS(=O)(=O)N=C23)cc1 | · | 2.3 | -0.9 | 0.657 | · | -0.8 | -7.1%
Cc1ccc(S(=O)(=O)N2CCC(C(=O)NNS(=O)(=O)c3ccc(Cl)cc3)CC2)cc1 | -0.2 | 3.3 | 0.3 | 0.689 | 3.8 | 8.9 | 0.2%
CC(Sc1n[nH]c(N)n1)C(=O)NC1CCCCC1C (stereo unspecified) | -0.2 | 0.5 | 2.1 | 0.703 | -9.3 | 3.7 | 1.9%
